From PubChem
Yeast UUG start = alters start codon recognition fidelity in yeast; activity score, % at 18.7 µM; S. cerevisiae UUG-firefly luciferase reporter, luminescence/redox ratio; 0.13% of 350,000 active;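 active means replicate mean at a twofold rise or more, about +100% in these data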;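 further: firefly luciferase made from a UUG start codon reports start codon fidelity; reporter light over untreated wells divided by growth signal over untreated wells; some hits fall short of that in this replicate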
Rce1 inhib = inhibitors of yeast Ras-converting enzyme; 0.27% of 290,000 active; AID 2563; Q03530; calls only; yeast membranes, quenched prenylated peptide cleavage fluorescence;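 active means fall in fluorescence gain of 50% or more versus controls, with final raw signal at or below 3038400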;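 further: plate controls were neutral control wells for no effect and wells lacking membranes for full effect; tested at 10 µM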
CSC inhib = cancer stem cell inhibition; cancer stem cell-like cells viability, luminescence; inhibition, % at 7.5 µM; 1.1% of 300,000 active; AID 2717;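 active means mean at 75% or more and at least half the replicates too; tested in HMLE shEcad cells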;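 further: 0% = median of negative and 100% = median of positive control wells; the first replicate is given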
PABP FP inh = blocks human PABP binding to poly(A) RNA | P11940 | fluorescence polarization | inhibition, % at 35 µM | 1% of 290,000 active;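 active means 50% or more with normal probe brightness, or confirmed in later tests; about a fifth of its hits are not listed in these tables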;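 further: calls also rest on retests at 20 µM and on dose response follow-up; controls were probe without protein and protein plus probe with vehicle; some compounds called inactive have numbers as strong as hits; many hits fall short of the cut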
Target sequence (P11940 whole entry, looked up): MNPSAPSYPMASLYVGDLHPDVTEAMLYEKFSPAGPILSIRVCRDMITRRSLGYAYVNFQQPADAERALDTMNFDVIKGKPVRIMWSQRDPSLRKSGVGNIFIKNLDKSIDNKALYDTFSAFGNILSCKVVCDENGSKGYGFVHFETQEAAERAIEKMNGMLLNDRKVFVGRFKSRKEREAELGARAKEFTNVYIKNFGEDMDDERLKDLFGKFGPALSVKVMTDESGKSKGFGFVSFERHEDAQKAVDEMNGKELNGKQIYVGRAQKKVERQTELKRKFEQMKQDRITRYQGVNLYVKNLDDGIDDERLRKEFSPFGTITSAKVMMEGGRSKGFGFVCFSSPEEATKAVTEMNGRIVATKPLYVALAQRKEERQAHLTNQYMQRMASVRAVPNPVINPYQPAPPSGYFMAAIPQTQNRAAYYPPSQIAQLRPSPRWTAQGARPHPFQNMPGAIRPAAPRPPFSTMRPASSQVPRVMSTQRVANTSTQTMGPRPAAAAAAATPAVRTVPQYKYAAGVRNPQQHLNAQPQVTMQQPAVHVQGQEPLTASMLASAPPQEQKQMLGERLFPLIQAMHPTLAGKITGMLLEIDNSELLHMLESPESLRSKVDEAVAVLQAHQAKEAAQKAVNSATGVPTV
MT1-MMP act inh = inhibitors of human MT1-MMP activation | P50281 | HT1080 RFP-PRO-GFP cells, GFP/RFP ratio fluorescence, overnight; percent of plate control window, DMSO zero | GFP/RFP ratio change, % at 20 µM | 0.061% of 360,000 active | AID 651647;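 active means GFP/RFP ratio change of at least 30% with cell ATP level not reduced by more than half and red fluorescence within 50% of control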; further: strong numbers were not always called active
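Test system: HT1080 cells expressing an RFP-PRO-GFP fluorescent reporter construct / Compound dosing: single-point 20 µM compound, 1% DMSO / Schedule: cells overnight before dosing, compound overnight, 37 °C, 5% CO2 / Evaluation: GFP/RFP fluorescence ratio / Control set: DMSO and RFP-L50D-GFP cell wells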
eIF4H inh = inhibitors of RNA binding by human eIF4H. inhibition, % at 35 µM. eIF4H fluorescence polarization binding assay. AID 2012. Q15056. 0.94% of 290,000 active;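 active means 50% or more with normal probe brightness, or confirmed in later tests; about a fifth of its hits are not listed in these tables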;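 further: calls also rest on retests at 20 µM and on dose response follow-up; 0% = protein and probe with vehicle and 100% = probe without protein; strong numbers were not always called active; many hits fall short of the cut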
HIV Env fusion = HIV envelope-mediated fusion inhibition. HeLa-JRFL Env/CEM21 cell fusion, luciferase. 1.1% of 360,000 active. AID 651610. inhibition, % at 12.3 µM;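 active means mean replicate inhibition score of at least 50 and every replicate individually at or above 50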;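 further: 0% = plate neutral controls and 100% = maraviroc near 300 nM; one replicate is shown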
eIF4H inh retest = second read-out of eIF4H inh, no call of its own (marks repeat the call); inhibition, %; compound at 20 µM; confirmation average;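 mean of two retest wells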
PABP FP inh retest = also measured in PABP FP inh; calls as there; inhibition, %; compound at 20 µM; confirmation repeats;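 mean of two retest wells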
MT1-MMP act inh RFP = further read-out of MT1-MMP act inh, marked with its call; RFP signal change, %; measured here: RFP expression control read;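 0 = vehicle wells; hits needed this value within 50% of zero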
* marks the source's active call; other numbers are inactive results; i = inactive; · = not tested or not shown. An excerpt; rates above refer to the full screens.

SMILES | Yeast UUG start | Rce1 inhib | CSC inhib | PABP FP inh | MT1-MMP act inh | MT1-MMP act inh RFP | eIF4H inh | HIV Env fusion | others
CCC(=O)n1nc(-c2ccc(OC)cc2)nc1SC | -15 | i | -9 | -5 | 3 | 2 | 0 | ·
CC(C)(C)C(=O)NC1(C(F)(F)F)NC(=O)N(Cc2ccccc2)C1=O (stereo not drawn) | · | i | 4 | 11 | -3 | 1 | 2 | 10
O=C(CC(Cc1ccccc1)C(=O)O)Nc1ccccc1 (stereo not drawn) | -9 | i | -11 | 9 | -2 | -1 | 11 | 3
COc1ccc(-c2cc3nc4n(c(=O)c3s2)CCC4)cc1 | -40 | i | 16 | 4 | 13 | -3 | -6 | ·
O=Cc1ccc(O)cc1O | -12 | i | -12 | -4 | -2 | -2 | -4 | ·
COc1ccccc1C(=O)NC(=S)Nc1ccc(NC(=O)c2cccs2)cc1 | · | i | -3 | -9 | 7 | -1 | -3 | -10
CCCn1c(NC(=O)CSCC(=O)Nc2cc(C)on2)nc2ccccc21 | -27 | i | -9 | · | 4 | 0 | · | -3
COc1cc2nc(C3CCC3)nc(N3CCN(c4ccccn4)CC3)c2cc1OC | -4 | i | 13 | 48 | -3 | -17 | 4 | ·
Cc1ccc(OCCSc2nnc(C)c(=O)n2N)cc1 | · | i | 6 | -3 | 1 | 0 | -9 | 5
CCCOc1c(Br)cc(C(N)=O)cc1OCC | · | i | 2 | -2 | -11 | -8 | -2 | -9
COc1ccc(N(CC(=O)N2CCC(Cc3ccccc3)CC2)S(C)(=O)=O)cc1 | · | i | 6 | 10 | 3 | -11 | -2 | -1
CC1(C)Cc2noc(N)c2C(C)(C)N1O | -11 | i | -19 | -5 | -10 | 0 | 55 | -10 | eIF4H inh retest=-8;PABP FP inh retest=2
CC1(C(=O)NS(=O)(=O)c2ccc(F)cc2F)CCN1C(=O)Cc1cccc2ccccc12 (stereo not drawn) | 10 | · | · | · | -1 | -2 | · | 5
COc1cccc(N(Cc2nnc3n2CCCCC3)C(=O)Nc2ccccc2)c1 | -24 | i | -1 | 2 | 2 | 2 | -12 | -2
O=C(Cn1c(=O)cnc2ccccc21)N1CCN(S(=O)(=O)c2ccc(F)cc2)CC1 | -22 | i | -14 | · | -1 | 0 | · | 7
CC1CCC(C(=O)NC(C(=O)NCc2cccnc2)C(C)C)CC1 (stereo not drawn) | -5 | i | · | 6 | 10 | 6 | 4 | -9
O=C(CN1CCSCC1)c1c[nH]c2ccccc12 | -2 | i | -15 | 15 | 3 | 5 | 24 | -11
COc1cccc(OC)c1C(=O)Nc1nnc(-c2cccs2)s1 | -3 | i | -21 | -9 | 2 | 1 | 0 | 5
O=C(CCC(=O)OCC(F)(F)C(F)F)Nc1ccccc1F | · | i | -6 | -3 | 1 | 2 | 10 | 20
COc1ncnc2c1ncn2CCCNCCN1CCOCC1 | -8 | · | · | · | 5 | 5 | · | -8
N#Cc1ccc(NC(=O)Cn2cnc(S(=O)(=O)N3CCCC3)c2)cc1 | -18 | i | 2 | 4 | -1 | 2 | -12 | -2
Cc1noc(C)c1S(=O)(=O)NC(=O)C1(C)CCN1C(=O)c1ccccc1CCc1ccccc1 (stereo not drawn) | 14 | · | · | · | -2 | 6 | · | 18
CCOC(=O)CCNC(=O)N1CCCC(C(=O)c2cccc(OC(C)C)c2)C1 (stereo not drawn) | -5 | i | -11 | 8 | -4 | 0 | 6 | -17
O=C(CSc1cccc2cccnc12)Nc1cc(C(=O)O)cc(C(=O)O)c1 | -17 | i | -10 | -2 | 1 | 3 | -7 | 3
CCC(=O)c1cn(CCOc2ccccc2OC)c2ccccc12 | -4 | i | -13 | 2 | 8 | -15 | 3 | 20
CCN(CC)C(=O)C1=C(C)N(Cc2ccccc2)C(=O)C(CC(=O)NCc2ccco2)C1 (stereo not drawn) | -3 | · | · | · | 0 | 3 | · | 10
O=S(=O)(NCc1csc(-c2cccs2)n1)c1cccs1 | · | i | -6 | -1 | 1 | 2 | -1 | 1
CCC(C)n1c(-c2cc(OC)c(OC)c(OC)c2)nc2nc3ccccc3nc21 (stereo not drawn) | · | i | -1 | 2 | · | · | 5 | ·
CC1CCc2c(sc(NC(=O)COC(=O)c3ccc(NC(=O)CC#N)cc3)c2C#N)C1 (stereo not drawn) | -23 | i | -10 | · | 1 | -4 | · | 9
N#Cc1cc(-c2ccccc2)cnc1Sc1ccccc1 | -9 | i | -2 | 9 | 0 | -4 | -1 | -10
NNC(=O)c1nc2ccccc2s1 | -15 | · | · | · | 0 | 3 | · | -20
O=C(c1ccccc1)N1CCN(CC(O)COc2cccc3ccccc23)CC1 (stereo not drawn) | -8 | i | -4 | 6 | 3 | 0 | -12 | -30
COc1ccc(NC2CCCN(C(=O)c3cccc(N4CCNC4=O)c3)C2)cc1 (stereo not drawn) | -10 | i | -10 | -2 | -2 | 0 | 1 | -10
CC(/C=C/c1ccco1)=N\NC(=O)c1cccc(Cl)c1 | -16 | i | 5 | -3 | 5 | 8 | 1 | -21
O=C(CCC(=O)c1cccs1)Nc1nnc(C2CC2)s1 | -13 | i | -16 | -6 | 9 | 9 | 1 | -9
ONC(=Nc1ccccc1)c1ccccc1Cl | -6 | i | 4 | -1 | 5 | 9 | -11 | -34
Cc1cccc2sc(N3CCN(C(=O)c4cccs4)CC3)nc12 | -10 | i | -15 | · | -1 | -1 | · | -1
Cc1ccc(F)cc1-c1nc(NC(C)C)nc2cc(-c3ccccc3)sc12 | -23 | · | · | · | -8 | 0 | · | 13
Clc1ccc(-c2nnc(NC3=NCCCCC3)o2)cc1 | -70 | i | 8 | 8 | 8 | -8 | 6 | -5
CCNC(=O)Nc1cc(OC)c(OC)cc1C(=O)O | -7 | i | -7 | -7 | 2 | 1 | -3 | -6
COc1ccccc1C(=O)NC(CCSC)C(=O)OCC(=O)N1CCN(S(=O)(=O)c2ccc(C)cc2)CC1 (stereo not drawn) | -6 | · | · | · | 1 | 0 | · | -14
OCCC1CN(Cc2cn[nH]c2C2CCCCC2)CCN1Cc1ccccc1 (stereo not drawn) | -20 | i | -8 | -3 | 4 | 7 | 6 | -38
CSc1ccc(S(=O)(=O)Nc2ccc(OCC(=O)N3CCOCC3)cc2)cc1 | · | i | -16 | 29 | 0 | 3 | -7 | 13
CCOCCCNC(=S)N1CCC(C(=O)c2ccc3c(c2)OCCO3)CC1 | · | i | -3 | -2 | -1 | 0 | 0 | 11
O=C(O)/C(=N/NC(=O)c1ccc(Cl)cc1)c1ccccc1 | 4 | i | -6 | 14 | 4 | 8 | -2 | -2

Reprinted from the part before: 2 entries; new compounds follow.
SMILES | Yeast UUG start | Rce1 inhib | CSC inhib | PABP FP inh | MT1-MMP act inh | MT1-MMP act inh RFP | eIF4H inh | HIV Env fusion | others
CCOCCCNC(=S)N1CCC(C(=O)c2ccc3c(c2)OCCO3)CC1 | · | i | -3 | -2 | -1 | 0 | 0 | 11
O=C(O)/C(=N/NC(=O)c1ccc(Cl)cc1)c1ccccc1 | 4 | i | -6 | 14 | 4 | 8 | -2 | -2
O=C(CCS(=O)(=O)c1cccs1)NC1CCCCCC1 | -18 | i | 4 | 1 | 3 | 0 | -3 | -52
Cc1ccc(NC(=O)CS(=O)CC(=O)NCCCc2ccccc2)cc1Cl (stereo not drawn) | -2 | · | -8 | -10 | -5 | 0 | -1 | -1
Cc1ccsc1C(=O)Nc1ccc(O)c(-c2nc3ccccc3s2)c1 | · | i | 6 | 2 | -8 | 1 | 15 | -7
Cc1ccc(NC(=O)c2sc3ncn(CC(=O)N4CCOCC4)c(=O)c3c2C)c(Br)c1 | -14 | i | 21 | -4 | -4 | -1 | -1 | -46
CCOc1ccccc1OCCCC(=O)Nc1ccc(S(=O)(=O)Nc2cc(C)nc(C)n2)cc1 | -4 | · | · | · | -5 | -2 | · | 0
CCCC(=O)NC(=S)Nc1ccc(C(C)=O)cc1 | · | i | · | 41 | 2 | 4 | 0 | -15
O=c1c2ccccc2ccc2ccccc12 | -21 | · | · | · | -3 | -1 | · | -4
Cc1ccc(/C=N/Nc2ccccn2)s1 | -22 | i | 0 | 1 | 3 | 0 | -6 | -34
S=C(NCCc1ccccc1)Nc1ccc(Br)cn1 | · | i | 3 | 9 | -1 | -8 | 1 | -8
CCOC(=O)C1CCCN(C(=O)COC(=O)c2ccc(C#N)cc2)C1 (stereo not drawn) | · | · | -7 | 9 | 0 | 2 | -10 | 2
CCOC(=O)C(C)Oc1ccc(OCc2ccccc2)cc1 (stereo not drawn) | · | i | · | 29 | 5 | 6 | -9 | 9
Cc1ccc2c([N+](=O)[O-])c(C)ccc2n1 | -14 | i | -11 | 5 | -9 | 1 | -6 | -358
Clc1ccc(-c2cnnc(-c3ccccn3)n2)cc1 | -32 | · | · | · | 8 | 3 | · | -73
CC(C)(C)c1ccc(COC(=O)Nc2ccc(F)cc2)cc1 | · | i | -3 | 2 | 3 | -1 | 9 | 6
CC(=O)Nc1cccc(/C(C)=N/NC(=O)c2ccc(Cl)cc2Cl)c1 | · | i | 6 | 3 | -3 | -10 | 4 | 3

Part of the list above in order of length of the SMILES, largest number first:
SMILES | Yeast UUG start | Rce1 inhib | CSC inhib | PABP FP inh | MT1-MMP act inh | MT1-MMP act inh RFP | eIF4H inh | HIV Env fusion | others
Cc1ccc(NC(=O)c2sc3ncn(CC(=O)N4CCOCC4)c(=O)c3c2C)c(Br)c1 | -14 | i | 21 | -4 | -4 | -1 | -1 | -46
CCOC(=O)C1CCCN(C(=O)COC(=O)c2ccc(C#N)cc2)C1 (stereo not drawn) | · | · | -7 | 9 | 0 | 2 | -10 | 2
Clc1ccc(-c2cnnc(-c3ccccn3)n2)cc1 | -32 | · | · | · | 8 | 3 | · | -73

Next section
SMILES | Yeast UUG start | Rce1 inhib | CSC inhib | PABP FP inh | MT1-MMP act inh | MT1-MMP act inh RFP | eIF4H inh | HIV Env fusion | others
CCC(CC)c1nnc(NC(=O)C2CC(=O)N(c3ccc4c(c3)OCCO4)C2)s1 (stereo not drawn) | 7 | i | -4 | -8 | -3 | 0 | 10 | -1
CCOC(=O)CNC(=O)N1CCCC(C(=O)c2ccccc2SC)C1 (stereo not drawn) | · | i | -7 | 21 | -1 | 2 | -4 | 3
COC(=O)c1cccc(C(=O)Nc2ccc(C)cc2Br)n1 | -7 | i | -3 | -9 | -4 | -4 | -10 | -48
CCCc1nc2ccc(C(=O)OC)cn2c1Cc1ccc(C)cc1 | 1 | · | · | · | -4 | 3 | · | -40
CCn1c(C(O)c2cc(OC)c(OC)c(OC)c2)nc2ccccc21 (stereo not drawn) | -17 | i | -13 | -12 | 3 | 0 | 8 | -18
Cc1cc(C)n2ncc(C(=O)Nc3cccc(O)c3)c2n1 | · | i | 12 | 4 | -1 | 0 | -3 | -5
COc1ccc(O)c(C(=O)c2cnc3nc4ccccc4n3c2)c1 | -13 | i | 55 | 10 | 2 | 5 | 14 | 5
O=C(Cc1ccccc1)NC(=S)Nc1ccc2oc(-c3ccccc3)nc2c1 | · | i | -16 | 15 | · | · | -4 | 15
OC(c1cccc(F)c1)c1ncc(-c2ccc(C(F)(F)F)cc2)[nH]1 (stereo not drawn) | -22 | · | · | · | 8 | -1 | · | -2
CN(C)c1nc2ccc(OCCN3CCCCC3)cc2s1 | 23 | i | 25 | -3 | 2 | 5 | -5 | -36
CCO[C@H]1OC(C(=O)NCc2ccccc2)=C[C@@H](c2coc3ccccc3c2=O)[C@@H]1CCCO | · | i | 10 | -14 | 0 | 1 | -2 | 13
CC1CN(c2ccc([N+](=O)[O-])c(NCCOc3ccccc3)c2)CCN1 (stereo not drawn) | 0 | · | 68 | -17 | -6 | -5 | 0 | -1
CN1C(=O)C(/C(N)=N/NC(=O)c2ccccc2)C2CC1(C)Oc1ccccc12 (stereo not drawn) | · | i | 8 | 10 | -6 | 0 | -3 | -5
CN1CCN(CCCNC(=O)Nc2cccc3ccccc23)CC1 | -11 | i | -6 | 6 | 2 | 5 | -2 | ·
